VACV Venus inh = inhibitors of vaccinia virus (Venus reporter) | 330,000 tested, 0.46% active | Vaccinia virus Venus reporter expression, fluorescence | Potency, µM (titrated, usually from 36.5 µM), for inactives: at the top dose activity change, negative = inhibition, hits mostly inhibitors; active means well fitted inhibition curve with a large enough effect; inconclusive means small, poorly fitted or top-dose-only effect; inactive means no such curve, though single readings can be large or run the other way; tested in A549 cells; also: nearly all actives have a fitted effect of over 30% in size; inactives centre near -10
Vaccinia mCherry = vaccinia inhibition (mCherry reporter) | Vaccinia virus mCherry reporter infection, fluorescence; about a quarter of the inactives have no number | Potency, µM (doses to about 36.5 µM), for inactives: top-dose activity change, negative = inhibition, actives largely listed as inhibitors | 310,000 tested, 0.63% active | AID 720579; active = well fitted inhibition curve with a large enough effect; inconclusive = small, poorly fitted or top-dose-only effect; inactive = no such curve, though single readings can be large or run the other way; tested in A549 cells; also: nearly all actives have a fitted effect of over 35% in size; inactives centre near -10
An asterisk follows results filed as active; i = inactive; u = inconclusive; x = not tested or not shown; & = joins results of further samples; [ ] = dose if it differs, or a comment. % is scaled to controls: 0 for no effect and ±100 for the full control effect; potency is read from the fitted curve at half-maximal effect.

SMILES | VACV Venus inh | Vaccinia mCherry
O=C(CN(CC1CCCO1)C(=O)CNS(=O)(=O)c1ccc(F)cc1)NCCc1ccccc1 (centres undefined) | -5% | -11%
CC1Cc2ccccc2N1C(=S)Nc1ccc(S(N)(=O)=O)cc1 (centres undefined) | -1% | -21%
Cc1nn(C)cc1-c1n[nH]c(=S)n1-c1ccc(Cl)cc1 | 8% | i
CC(=O)c1sc(NC(=O)COc2ccc([N+](=O)[O-])cc2)nc1C | -16% | u
COc1ccc([C@@H]2C[C@H]3[C@@H](CN2S(=O)(=O)c2ccccc2)C(=O)C[C@@H](c2ccc(OC)cc2)N3S(=O)(=O)c2ccccc2)cc1 | -3% | 25%
FC(F)Sc1ccc(-n2c(-c3ccc(Cl)cc3)c[n+]3c2CCC3)cc1 | -3% | -1%
C[C@H]1CC[C@@H]2[C@@H](C)[C@H]3[C@H](C[C@H]4[C@@H]5CC=C6C[C@@H](O[C@@H]7O[C@H](CO)[C@H](O)[C@H](O[C@@H]8O[C@H](CO)[C@@H](O)[C@H](O)[C@H]8O)[C@H]7O[C@@H]7O[C@@H](C)[C@H](O)[C@@H](O)[C@H]7O)CC[C@]6(C)[C@H]5CC[C@]34C)N2C1 | u | u
COc1ccc(NC(=O)CSc2nc3c(c(=O)n2-c2ccc(F)cc2)SCC3)c(OC)c1 | -17% | x
CCOC(=O)C1=CN(CC)CCC1=O | -10% | -14%
CCN(CC(=O)Nc1c(F)cccc1F)C(=O)Cc1sc(C)nc1-c1ccc(F)cc1 | -7% | -12%
Cc1ccc[n+](CC(=O)c2ccc(NC(=O)c3ccccc3)cc2)c1C | -22% | -27%
COc1ccccc1CCNC(=O)CSc1nc(=O)[nH]c2c1CCC2 | -13% | i
CC1CCN(c2c(NCC3CCC(C(=O)N4CCCCC4)CC3)c(=O)c2=O)CC1 (centres undefined) | -5% | -3%
COC(=O)c1ccccc1NC(=O)c1ccccc1N(C)S(=O)(=O)c1ccccc1 | -13% | i
COc1cc2c(cc1OC)CN(C(=O)C1CCN(S(=O)(=O)c3ccccc3F)CC1)CC2 | -18% | -25%
NCCCC(=O)N1c2ccccc2Sc2ccc(Cl)cc21 | -19% | -25%
COc1ccc(Oc2ccccc2C#N)cc1 | -8% | -7%
O=C1N=C(N2CCOCC2)SC1=Cc1ccco1 | -11% | i
CCc1ccc(-n2c(Cn3nc(C(F)(F)F)cc3C)n[nH]c2=S)cc1 | -5% | -9%
O=C(NC(=S)NNC(=O)c1ccccc1O)c1ccc(F)cc1 | -5% | -22%

An excerpt of these results, as a markdown table:
| Molecule | VACV Venus inh | Vaccinia mCherry |
| --- | --- | --- |
| CC1Cc2ccccc2N1C(=S)Nc1ccc(S(N)(=O)=O)cc1 (centres undefined) | -1% | -21% |
| Cc1nn(C)cc1-c1n[nH]c(=S)n1-c1ccc(Cl)cc1 | 8% | i |

Record cards, as listed above.
Listed for COc1ccc(NC(=O)CSc2nc3c(c(=O)n2-c2ccc(F)cc2)SCC3)c(OC)c1 = VACV Venus inh: -17%; Vaccinia mCherry: x
Listed for C[C@H]1CC[C@@H]2[C@@H](C)[C@H]3[C@H](C[C@H]4[C@@H]5CC=C6C[C@@H](O[C@@H]7O[C@H](CO)[C@H](O)[C@H](O[C@@H]8O[C@H](CO)[C@@H](O)[C@H](O)[C@H]8O)[C@H]7O[C@@H]7O[C@@H](C)[C@H](O)[C@@H](O)[C@H]7O)CC[C@]6(C)[C@H]5CC[C@]34C)N2C1 = VACV Venus inh: u; Vaccinia mCherry: u

Remaining list, next part:
SMILES | VACV Venus inh | Vaccinia mCherry
COC(=O)C1(O)CC(C(C)C)=NN1C(=O)c1ccccc1 (centres undefined) | -5% | -11%
Cc1ccc(C(=O)Nc2ccccc2SCC2CSc3nc4ccccc4c(=O)n32)cc1 (centres undefined) | -11% | x
COc1ccc(-c2oc3cccnc3c2-c2ccc(OC)nc2)cc1 | -7% | u
CC(=O)c1c(O)cc(C)n(-c2ccc(F)cc2)c1=O | -9% | i
Cc1ccccc1C(=O)Oc1cc(N)n(S(C)(=O)=O)n1 | -10% | -3%
COc1ccc(-c2nnc(NC(=O)c3ccc([N+](=O)[O-])o3)o2)c(OC)c1 | u | u
Cc1ccc2c(c1)[C@H]1[C@H](CO2)[C@H](c2ccccc2)[C@]2(C)C(=O)N(CC3CCCO3)CC(=O)N12 (some centres undefined) | -14% | i
O=S(=O)(c1ccc(-c2ccno2)s1)N1CCCCC1 | -5% | i
CC1OC(C[N+](C)(C)C)CC1O (centres undefined) | -8% | i
O=C(c1cccc(S(=O)(=O)N2CCOCC2)c1)N1CCCC(C(F)(F)F)C1 (centres undefined) | -3% | -22%
COC(=O)C1=C(c2cc3ccccc3s2)C[C@@H]2CC[C@H]1N2C(=O)NC1CC1 | -30% | -7%
COc1ccc2c(c1)[C@@H]1[C@H](CO2)[C@H](c2ccccc2)[C@]2(C)C(=O)NCC(=O)N12 | -5% | i
COC(=O)c1nnn(-c2ccsc2C(=O)OC)c1C(=O)OC | -9% | -4%
COc1ccccc1C1CN(Cc2cccc(OCCO)c2)Cc2ccccc2O1 (centres undefined) | -12% | i
COc1ccccc1N1CCN(c2c3c(nc4nncn24)CCC3)CC1 | -3% | i
CC1(C)OC(c2ccccc2)=C/C(=C/C=N/NC(=O)c2ccncc2)O1 | -12% | -12%
N#Cc1nc(-c2ccc(F)cc2)oc1NCCN1CCOCC1 | -11% | u
CCOc1ccc(Br)cc1CNCCN1CCOCC1 | -16% | -15%
CC1(C)CCC(=O)N2CC[C@H]3C[C@H](OC(=O)Nc4ccc5c(c4)OCO5)C[C@@H]1[C@H]32 | -18% | i
CCCCCCSc1cc(-c2nc3cc(C)ccn3c2NCCCC)ccc1OC | u | -28%&-7%
Cc1ccc(NC(=O)CN(C)C(=O)C(C)OC(=O)c2ccccc2NCCO)cc1 (centres undefined) | -24% | -22%
CC(=O)N(O)c1ccc(/C=C2\C=Cc3ccccc32)cc1 | -7% | -17%
Cc1ccccc1NC(=O)C(C)Sc1nnc(-c2ccncc2)n1CC1CCCO1 (centres undefined) | -12% | -20%
CCCCOc1ccccc1C(=O)NCC(=O)O | 0% | -15%
CCOc1ccc(CNCCNC(=O)c2nonc2N)cc1 | -8%&3% | -10%
COc1ccc(OC)c(-c2nnc(SCC(=O)NC3CCCCC3)o2)c1 | -13% | -5%
C[C@@H](NC(=O)[C@@H]1CCCN1C(=O)[C@@H]1CCCN1C(=O)c1ccccc1)c1ccccc1 | -5% | -8%
C#CCOCCOCCOCCNc1nc(N2CCN(C(=O)CCCCCCCCCCNC(=O)Cn3cc(C[C@@H](C)O)nn3)CC2)nc(N2CCN(C(=O)CCCCCCCCCCNC(=O)[C@@H]([C@H](C)CC)n3cc(CCCCCN)nn3)CC2)n1 | u | u
O=C(/C=C/c1cccs1)c1cc(Cl)ccc1OC(=O)N1CCOCC1 | -21% | -3%
Cc1nc(NCCO)c2nnn(Cc3ccccc3F)c2n1 | -11% | i
COc1cccc(/C=N/Nc2snc(SC)c2C#N)c1O | 7.9µM* | 10µM*
CCCOc1ccc(-c2nc(-c3ccc([N+](=O)[O-])cc3)cs2)cc1 | -10% | -8%
CC(=O)c1ccc(-n2c(SCC(=O)c3c[nH]c4ccccc34)nc3ccccc3c2=O)cc1 | -24% | -7%
NNC(=O)CNC(c1ccccc1)c1cc(Br)ccc1NC(=O)CCN1CCOCC1 (centres undefined) | 6% | x
Cc1cc(C(=O)NCCc2ccc(Cl)cc2)n(-c2ccccc2)n1 | -12% | -13%
COc1cccc(-c2nnn(CC(=O)O)n2)c1 | 0% | -10%
O=C(CN1CCSc2ccccc21)N1CCCCC1 | 5% | 3%
COc1ccc(C(=O)NNC(=O)c2ccc3ccccc3n2)cc1 | u | 11µM*
Cc1onc(C(=O)NC(C)c2ccccc2)c1[N+](=O)[O-] (centres undefined) | -7% | i
Cc1sc2nc(CSc3ccccc3)nc(N3CCOCC3)c2c1C | -22% | -10%
Cc1ccc([N+](=O)[O-])cc1NC(=O)C(C)N1CCCCC1 (centres undefined) | -17% | -7%
Cc1cc(C)c2nc(SCC(=O)Nc3cc(C)on3)c(C)cc2c1 | -3% | -19%
Cc1cc(C)nc(SCC(=O)OCC(=O)N(C)c2c(N)n(Cc3ccccc3)c(=O)[nH]c2=O)n1 | -10% | -11%
CCNC(=S)Nc1cc2oc3ccccc3c2cc1OC | u | u
O=C(CCCOc1ccc(Cl)cc1Cl)NCCCn1ccnc1 | -3% | i
CCC(C)NC(=O)CCC(=O)Nc1ccc2nc(N3CCOCC3)cc(C)c2c1 (centres undefined) | -14% | -18%
COC(=O)CCC(=O)OC1(C)C(=O)C=C2C=C(C3CC3)N(CCN3CCOCC3)C=C2C1=O (centres undefined) | -6% | -1%
CCN1C[C@@H]2[C@@H]3C(=O)N(Cc4ccccc4)C(=O)[C@@H]3[C@](C)(C(=O)OC)N2C1=NC | -16% | i
Cn1c(NCCc2ccccc2)cc(=O)n(C)c1=O | -26% | x
Cn1nc(C(C)(C)C)c(NC(=O)c2sccc2Cl)c1C(C)(C)C | -16% | -6%
COc1cc(C(=O)Nc2ccccc2N2CCOCC2)ccc1OCc1c(C)noc1C | -15% | -3%
CCOCCCNC(=O)C(c1ccccc1)N(Cc1ccc2c(c1)OCO2)C(=O)CNC(C)=O (centres undefined) | 2% | -13%
CN(C)S(=O)(=O)Oc1ccc(Cl)cc1C(=O)Nc1ccc(F)cc1F | -2% | -20%
CCc1ccccc1NC(=O)c1onc(C)c1Cl | -2% | -14%
N#CCCN(C(=O)COC(=O)c1ccc(Cl)nc1)c1ccc2c(c1)OCCO2 | -4% | -2%
CCN(CC)C(=O)Cn1ncc2c1-c1ccccc1OC2 | -19% | i
CCn1c(CN2CCCCC2)nc2cc(NC(=O)COc3ccccc3C(C)(C)C)ccc21 | -24% | -12%
O=C(CNC(=O)c1ccc(Cl)cc1)Nc1ccc(S(=O)(=O)Nc2ncccn2)cc1 | 7% | 14%
COc1ccc(Cl)cc1NC(=O)C1CCCN(S(=O)(=O)c2cccc3nonc23)C1 (centres undefined) | 2% | -4%
COc1ccc(C2/C(=C(/O)c3ccc(OC(C)C)cc3)C(=O)C(=O)N2CCCN2CCOCC2)cc1 (centres undefined) | -12% | -13%

The final four compounds of the section before are carried over, then new ones follow:
SMILES | VACV Venus inh | Vaccinia mCherry
CCn1c(CN2CCCCC2)nc2cc(NC(=O)COc3ccccc3C(C)(C)C)ccc21 | -24% | -12%
O=C(CNC(=O)c1ccc(Cl)cc1)Nc1ccc(S(=O)(=O)Nc2ncccn2)cc1 | 7% | 14%
COc1ccc(Cl)cc1NC(=O)C1CCCN(S(=O)(=O)c2cccc3nonc23)C1 (centres undefined) | 2% | -4%
COc1ccc(C2/C(=C(/O)c3ccc(OC(C)C)cc3)C(=O)C(=O)N2CCCN2CCOCC2)cc1 (centres undefined) | -12% | -13%
Cc1ccc(F)cc1NC(=O)N1CCCN(C(=O)OC(C)(C)C)CC1 | -14% | -10%
Cc1ccc(NC(=O)Nc2ncccc2C)cc1 | -5% | -13%
CCCCn1c(=O)c2oc3ccccc3c2n(Cc2cccc(F)c2)c1=O | -6% | -11%
C[C@@H]1C=C(C(=O)NCc2nc3ccccc3[nH]2)O[C@H](OCc2ccc(CO)cc2)C1 | -10% | i
O=C(Cc1ccc(Cl)cc1)Oc1cccc2cccnc12 | -16% | i
CN(C)c1ccc(/C=N\NC(=O)c2csnn2)cc1 | -17% | -16%
Cc1ccc(O)c(CO)n1 | -7% | -7%
O=C(NCc1cccs1)[C@@H]1CSC2c3ccccc3C(=O)N21 (some centres undefined) | -4% | x
O=C(COc1ccccc1)N1N=C(c2cccnc2)CC1(O)C(F)(F)F (centres undefined) | -6% | i
CC1CCCC(C)N1C(=O)c1cc(-c2ccc(Cl)c(Cl)c2)on1 (centres undefined) | -9% | -1%
CNC(=S)NNC(=O)c1noc(C)c1C(=O)N1CCN(C(c2ccccc2)c2ccccc2)CC1 | -9% | -1%
Cc1ccc(S(=O)(=O)NCc2csc(C)n2)cc1 | -17% | -3%
CCOc1ccc(C(=O)Nc2ccccc2C#N)cc1[N+](=O)[O-] | -3% | i
COc1cccc(Cn2c(C)c(CNCc3ccccc3Cl)c(C(=O)O)c2C)c1 | -7% | -14%
O=C(Nc1ccccc1C(=O)N1CCOCC1)c1ccc(Br)cc1 | -8% | i
O[C@H]1CN(CC2CCCCC2)[C@@H](c2ccc(Cl)cc2)C[C@@H]1n1cc(C2CC2)nn1 | u | -27%
COc1cc(/C=C/C(=O)OC(C)C(=O)Nc2c(C)n(C)n(-c3ccccc3)c2=O)ccc1OCC#N (centres undefined) | -19% | i
Cn1c(=O)n(C)c2cc(S(=O)(=O)N3CCCc4ccccc43)ccc21 | u | -23%
CC(C)C[C@H]1CN([C@@H](CC(C)C)CN2CCC[C@H]2CN2C(=O)C(=O)NC[C@@H]2Cc2ccc(O)cc2)C(=O)C(=O)N1CC1CCCCC1 | 1% | 30%[activator]
CCOc1ccccc1CNC(=O)CSc1n[nH]c(-c2ccccc2)n1 | -13% | -15%
COc1cccc(NC(=O)CN(C)C(=O)c2ccc(OCc3ccccc3)c(OC)c2)c1 | -14% | -17%
COc1ccc(CCNCc2ccc(OCC(=O)N3CCCCC3)c(OC)c2)cc1OC | -23% | u
COc1ccccc1NC(=O)Cn1c(=O)n(CC2CCC(C(=O)NCCc3ccccc3)CC2)c(=O)c2ccccc21 (centres undefined) | -19% | -24%
Fc1cccc2ncnc(OCc3ccccc3)c12 | -9% | i
O=C(Cc1ccc2c(c1)CCCC2)Nc1ccccc1Br | -9% | -3%
CCCc1nc(SCC(=O)c2ccc(OC)cc2)c2ccccc2n1 | -21% | i
O=C(CN1CCCc2ccccc21)NCc1ccccc1Cl | -5% | -12%

Screens (PubChem)
